Screens deposited in PubChem by SRMLSC.
H5N1 CPE – MDCK cell protection from H5N1 avian flu. 96,000 compounds, 0.07% hits. inhibition, % at 50 µM. cytopathic effect, luminescence, 72 h; hits give high values; no value below 0 was filed and about half of the inactive calls have no number; reference of the scale not given here; in the data active means inhibition above about 25%
An asterisk follows results filed as active; i = inactive. Some of the compounds tested, so the mix of outcomes need not match the whole.

CC(Oc1ccc(Cl)cc1Cl)C(=O)Nc1ccc(N2CCN(C)CC2)cc1 (stereo unspecified)
- H5N1 CPE: i
O=C(NCc1ccco1)c1cc(-c2cccs2)on1
- H5N1 CPE: i
O=C(COc1ccc(S(=O)(=O)Nc2ccccc2)cc1)N1CCOCC1
- H5N1 CPE: 1.5
O=C(NCCOc1ccccc1)c1ccccc1
- H5N1 CPE: i
CCCCC1OC23CCCCC2C(C#N)(C(=N)O3)C1(C#N)C#N (stereo unspecified)
- H5N1 CPE: 6.1
CO/N=C(/CS(=O)Cc1ccccc1Cl)c1ccc(Cl)cc1Cl (stereo unspecified)
- H5N1 CPE: i
O=C(c1cccs1)N1CCN(C(=O)C2CCCO2)CC1 (stereo unspecified)
- H5N1 CPE: i
CCCCCn1c(=O)[nH]c2cc(C(=O)NCCCN3CCC(C)CC3)ccc2c1=O
- H5N1 CPE: i
O=C(Nc1ccc(CN2CCOCC2)cc1)c1cccs1
- H5N1 CPE: 2.1
COC(=O)c1cc(C(O)(C(=O)OC)C(F)(F)F)c(/N=C/N(C)C)s1 (stereo unspecified)
- H5N1 CPE: 0.5
N=c1n(CCOc2ccccc2)c2ccccc2n1CCN1CCOCC1
- H5N1 CPE: i
CCOC(=O)N1CCN(c2c(NCCCN(C)c3ccccc3)c(=O)c2=O)CC1
- H5N1 CPE: 2.7
CC(Sc1nc(-c2ccccc2)cc(C(F)(F)F)n1)C(=O)N1CCCC1 (stereo unspecified)
- H5N1 CPE: 2.7
CCOc1ccc(NS(=O)(=O)c2cc(Cl)ccc2OC)cc1
- H5N1 CPE: i
Cc1nc2ccc(NC(=O)c3cc(S(=O)(=O)N4CCOCC4)ccc3C)cc2s1
- H5N1 CPE: 2.8

O=C(NCc1ccccc1Br)c1ccco1
- H5N1 CPE: 2.2
O=C(NCCCN1CCOCC1)C1CCC(=O)N1CCc1ccccc1 (stereo unspecified)
- H5N1 CPE: 1.2
COc1ccccc1C(=O)C1Nc2ccccc2-c2nnc(SC)nc2O1 (stereo unspecified)
- H5N1 CPE: 0.0
CN1CCN(CC#CC2(O)CCCCC2)CC1
- H5N1 CPE: 0.6
COc1ccc(S(=O)(=O)N2CCN(C3CCCCCCC3)CC2)cc1
- H5N1 CPE: 1.1
Cc1cc([N+](=O)[O-])nn1CC(=O)NCc1cccs1
- H5N1 CPE: i
CCOC(=O)C1=C(C)NC2(O)c3ccccc3C(=O)C12O (stereo unspecified)
- H5N1 CPE: i
CC1CC(=O)N(CC(=O)Nc2ccc3c(c2)OCCO3)c2ccccc2S1 (stereo unspecified)
- H5N1 CPE: 0.2
CC(=O)C1C(c2ccc3ncccc3c2)NC(=O)NC1(O)C(F)(F)F (stereo unspecified)
- H5N1 CPE: i
Cc1ccc(C(=O)N2CCN(C3c4cccc5cccc(c45)C3NS(=O)(=O)c3ccccc3)CC2)cc1 (stereo unspecified)
- H5N1 CPE: i
CCCc1cc(=O)oc2cc(OCc3nn[nH]n3)ccc12
- H5N1 CPE: i
Cc1cc(C)c2c(C)nn(-c3ccccc3)c2n1
- H5N1 CPE: i
O=C1C=C(c2ccccc2)OC2(CCCC2)O1
- H5N1 CPE: 0.1
O=C1Cn2c(nc3ccccc32)N1c1cccc(C(F)(F)F)c1
- H5N1 CPE: i
Cc1ccc(C(=O)COC(=O)c2cc(Cl)nc3ccccc23)cc1C
- H5N1 CPE: 0.9

CCCc1cc(=O)[nH]c(SCC(=O)N(Cc2ccccc2)C(C)C)n1
- H5N1 CPE: 0.4
O=C(CN1C(=O)NC2(CCCCCCC2)C1=O)NCc1ccc2c(c1)OCO2
- H5N1 CPE: 0.9
NS(=O)(=O)c1ccc(CCNc2ncnc3sccc23)cc1
- H5N1 CPE: 0.5
CCc1nc(OCCN(CC)CC)c2oc3ccccc3c2n1
- H5N1 CPE: 4.9
CC1CCCC(C)N1c1nnc(NC(=O)Cn2c(=O)oc3ccccc32)s1 (stereo unspecified)
- H5N1 CPE: 0.9
O=C(CNC(=O)c1cccs1)OCC(=O)c1cccs1
- H5N1 CPE: 1.1
CCOC(=O)Cc1cc(=O)n(-c2nc3ccccc3s2)[nH]1
- H5N1 CPE: i
O=c1cc(N2CCN(c3ccc(F)cc3)CC2)[nH]c(=O)n1C1CCCCC1
- H5N1 CPE: i
CCOC(=O)N1CCN(C(=O)CNCc2cccs2)CC1
- H5N1 CPE: i
Cn1c(=O)c2nc(-c3ccccc3)oc2c2ccccc21
- H5N1 CPE: 5.0
O=C(Nn1cnnc1)c1ccccc1CCc1ccccc1
- H5N1 CPE: i
c1ccc(CN2c3ccccc3-c3nc4ccccc4n3C2c2ccccn2)cc1 (stereo unspecified)
- H5N1 CPE: i
COC(=O)c1cc(Br)c(=O)n(CCc2ccc(O)cc2)c1
- H5N1 CPE: 0.4
C=CCn1c(-c2ccco2)n[nH]c1=S
- H5N1 CPE: 0.1
CCCCCCc1c(O)nc(SCC(=O)O)[nH]c1=O
- H5N1 CPE: i

CCOC(=O)c1cnc2scnn2c1=O
- H5N1 CPE: i
Cc1ccc(N=N/C(=C\O)C(=O)c2ccncc2)cc1
- H5N1 CPE: 0.2
CCNc1nc(OC)nc(SCC(N)=O)n1
- H5N1 CPE: i
O=c1oc2cc(Cl)ccc2n1CSc1nc2ccccc2s1
- H5N1 CPE: i
CCCC(=O)Nc1ccc2c(c1)nc1n2CCOC1
- H5N1 CPE: 0.6
Cc1nn(-c2ccc(C(=O)O)cc2)c(=O)c2ccccc12
- H5N1 CPE: i
CCCOc1nc2c(c(=O)n(C)c(=O)n2C)n1CCC
- H5N1 CPE: 0.6
CC(C)CNS(=O)(=O)c1ccc2c(c1)OCCO2
- H5N1 CPE: i
Cc1cccc2c1nc(-c1ccccc1)n1nnnc21
- H5N1 CPE: i
O=S(=O)(c1cc(Cl)ccc1Cl)N1CCCC1
- H5N1 CPE: i
Cc1ccc(C(=O)Nc2nc(=O)n(C(=O)C3CC3)s2)cc1
- H5N1 CPE: i
O=C(CN1C(=O)CCS(=O)(=O)c2ccccc21)Nc1ccc2c(c1)OCCO2
- H5N1 CPE: 0.9
Cc1cccc(-n2nnnc2SCC(=O)NCCN2C(=O)CSC2=O)c1
- H5N1 CPE: i
CSc1nc(Sc2ccccc2Cl)c2ccccc2n1
- H5N1 CPE: i
CCOC(=O)Nc1nnc(CCc2ccccc2)s1
- H5N1 CPE: i

O=C(CSc1nnc(C2COc3ccccc3O2)o1)NC1CCCCC1 (stereo unspecified)
- H5N1 CPE: i
COc1ccc(C)cc1NC(=O)c1nnn(CCc2ccccc2)c1N
- H5N1 CPE: i
O=C(CN1CCN(c2ccccn2)CC1)N1c2ccccc2CCc2ccccc21
- H5N1 CPE: i
Cc1cc2cc(CN(CC3CCCO3)C(=O)c3cnccn3)c(=O)[nH]c2cc1C (stereo unspecified)
- H5N1 CPE: i
CCOc1cc2c(cc1OCC)C(C(=O)O)C(c1ccc(OC)c(O)c1)N(C)C2=O (stereo unspecified)
- H5N1 CPE: 0.3
CCC(C(=O)Nc1nc(C)cs1)c1ccccc1 (stereo unspecified)
- H5N1 CPE: i
CCOC(=O)c1cc(-c2ccc(C)o2)nn1CCC#N
- H5N1 CPE: i
CCOc1ccc(Br)cc1-c1noc(-c2cccs2)n1
- H5N1 CPE: 0.2
CCC1(CC)C(=O)C(C)(C)C(=O)OC1c1ccccn1 (stereo unspecified)
- H5N1 CPE: i
CN(C)CCCCCNCCCNC(=O)/C=N\O
- H5N1 CPE: i
O=C(N[C@@H](Cc1ccccc1)C(=O)O)c1cccnc1
- H5N1 CPE: i
COc1ccc(Nc2nc(OC)nc(N3CCN(c4ccc(OC)cc4)CC3)n2)cc1
- H5N1 CPE: i
CC1(C)Oc2ccc3ccc(=O)oc3c2/C(=C/NCCO)C1=O
- H5N1 CPE: i
O=S(=O)(N[C@@H]1C[C@H]2CC[C@@H]1C2)c1cccs1
- H5N1 CPE: 1.4
CCCCOc1ccccc1C1NC(=O)NC(C)=C1C(=O)OCCOCC (stereo unspecified)
- H5N1 CPE: i

OC(COc1ccc2c(c1)CCC2)CN1CCN(c2ccccc2F)CC1 (stereo unspecified)
- H5N1 CPE: i
O=C(Nc1ccc2nc(C3CC3)n(Cc3ccc(F)cc3)c(=O)c2c1)c1ccco1
- H5N1 CPE: i
O=C(NNS(=O)(=O)c1ccc(Cl)cc1)NC1CCCCC1
- H5N1 CPE: 0.2
Cc1cc(Cl)ccc1OCC(=O)N1CCN(C)CC1
- H5N1 CPE: i
Cc1cc(C)nc(NCC(O)COc2ccccc2C)n1 (stereo unspecified)
- H5N1 CPE: i
Cc1ccc(NC(=S)NC(NC(=O)c2ccccc2C)C(Cl)(Cl)Cl)c(C)c1 (stereo unspecified)
- H5N1 CPE: 17
COc1cc(OC)cc(-c2nnc(SCc3cccnc3)o2)c1
- H5N1 CPE: i
CCN(CC)C(=O)C(=O)Nc1cc(C(F)(F)F)ccc1Cl
- H5N1 CPE: i
COc1ccc(OC)c2sc(NC(=O)c3ccc(S(=O)(=O)N4CCOCC4)cc3)nc12
- H5N1 CPE: 2.4
Cc1ccc(-c2noc(CN(C(=O)c3cccs3)C(C)C)n2)cc1
- H5N1 CPE: i
CCOC(=O)N1CCN(C(=O)c2ccc3c(=O)n(CCc4ccccc4)c(=O)[nH]c3c2)CC1
- H5N1 CPE: 1.0
Cc1cc(NC(=O)CCN2C(=O)C3C4C=CC(C4)C3C2=O)c2ccccc2n1 (stereo unspecified)
- H5N1 CPE: 1.3
Clc1cc(Cl)c2nc(N3CCCCC3)sc2c1
- H5N1 CPE: i
Cc1nc2c(C)cccn2c1C(=O)c1ccccc1
- H5N1 CPE: 1.1
Cc1ccc(OCC(=O)c2cc(C)c(C)cc2C)c([N+](=O)[O-])n1
- H5N1 CPE: i

O=C(NCCCn1ccnc1)c1cccc(S(=O)(=O)Nc2ccccc2F)c1
- H5N1 CPE: 1.7
N#CCC(=O)Nc1ccccc1C(=O)O
- H5N1 CPE: i
Cc1ccccc1NC(=O)CCn1c(=O)oc2ccccc21
- H5N1 CPE: i
Cc1c(NC(=O)CC(=O)Nc2c(C)n(C)n(-c3ccccc3)c2=O)c(=O)n(-c2ccccc2)n1C
- H5N1 CPE: i
CCn1c(C(O)c2cccc(OC)c2OC)nc2ccccc21 (stereo unspecified)
- H5N1 CPE: i
Cc1cccc(N2CCN(c3cc(C)nc4nnnn34)CC2C)c1 (stereo unspecified)
- H5N1 CPE: 0.6
Clc1cccc(Cl)c1CSc1nnc(-c2sccc2-n2cccc2)o1
- H5N1 CPE: 3.4
O=C(CCc1ccc(S(=O)(=O)NC2CCCCC2)cc1)NCc1ccccc1
- H5N1 CPE: i
CN(C)c1ccc(-n2cccc2/C=C2/SC(=Nc3ccc(F)cc3)NC2=O)cc1
- H5N1 CPE: i
O=C(N/N=C/c1ccc(OC(=O)c2cccs2)cc1)c1cccc(F)c1
- H5N1 CPE: i
Cc1ccc(C(=O)CCC(=O)Nc2cccnc2)cc1C
- H5N1 CPE: i
O=C(Nc1ccc2c(c1)ncn2C1CCCCC1)c1ccco1
- H5N1 CPE: 0.4
O=C(Nc1ccccn1)c1ccco1
- H5N1 CPE: 4.7
Cc1cc(NC(=O)c2cc3n(n2)C(C(F)(F)F)CC(c2ccco2)N3)n(-c2ccccc2)n1 (stereo unspecified)
- H5N1 CPE: i
CCn1c(SCC(=O)N2CCCc3ccccc32)nnc1-c1cccs1
- H5N1 CPE: 0.1

Cc1ccc(NC(=O)CN(c2cc(C)cc(C)c2)S(=O)(=O)c2c(C)noc2C)nc1
- H5N1 CPE: 0.2
Cc1ccc(N2CC(C(=O)Nc3cccnc3)CC2=O)cc1 (stereo unspecified)
- H5N1 CPE: i
CCOc1ccc(N(C(=O)Nc2ccccc2)C2=NCCC2)cc1
- H5N1 CPE: 1.3
CN1C(=O)CC(C(=O)O)SC1=Nc1cccc(C(F)(F)F)c1 (stereo unspecified)
- H5N1 CPE: i
c1ccc(-c2nc3ccccc3nc2N2CCOCC2)cc1
- H5N1 CPE: 0.2
CCCCCn1c(CCNC(=O)CCC)nc2ccccc21
- H5N1 CPE: i
COc1ccc2c(c1)CCCC21NC(=O)N(CC(N)=O)C1=O (stereo unspecified)
- H5N1 CPE: i
Cc1ccc(NC(=O)CSC2=C(C#N)C(c3ccco3)C3=C(CC(C)(C)CC3=O)N2)cc1 (stereo unspecified)
- H5N1 CPE: 11
CCOc1cc(C(=O)N(C)c2ccccc2)cc(OCC)c1OCC
- H5N1 CPE: 0.6
CCCCCCCC(=O)NNC(=O)c1ccc([N+](=O)[O-])cc1
- H5N1 CPE: 0.2
COC(=O)CNc1n[nH]c(=S)[nH]c1=O
- H5N1 CPE: i
CCn1ncc(/C=N\NC(=O)c2cc(-c3ccc(C)cc3C)nc3ccccc23)c1C
- H5N1 CPE: i
COC(/C=C/Nc1ccc(C)cc1)=C(C#N)C#N
- H5N1 CPE: i
C=CCn1c(SCC(=O)Nc2c(C)n(C)n(-c3ccccc3)c2=O)nc2scc(-c3ccccc3)c2c1=O
- H5N1 CPE: 0.2
COc1cccc(CNC(=O)C2CCN(S(=O)(=O)N3CCCC3)CC2)c1
- H5N1 CPE: i

CC(C)Cn1c(N)c(C(=O)NCC2CCCO2)c2nc3ccccc3nc21 (stereo unspecified)
- H5N1 CPE: i
CCc1ccc(-c2nc(CN3CCC(C(=O)NCc4ccc(F)cc4)CC3)c(C)o2)cc1
- H5N1 CPE: i
COC(=O)C(O)(c1c(C)[nH]n(-c2ccccc2)c1=O)C(F)(F)F (stereo unspecified)
- H5N1 CPE: i
CCOC(=O)C(CC(C)C)CP(=O)(O)CNC(=O)OCc1ccccc1 (stereo unspecified)
- H5N1 CPE: 0.2
Fc1ccc(-n2[nH]nnc2=S)cc1N1CCCC1
- H5N1 CPE: i
CCCCn1c(O)c(C(CC)=Nc2ccc(OC)cc2OC)c(=O)[nH]c1=O
- H5N1 CPE: 0.1
COc1ccc(Cn2nnnc2C(CC(C)C)N2CCN(c3ccccc3)CC2)cc1 (stereo unspecified)
- H5N1 CPE: 0.1
Cn1c(N)c(C(=O)COC(=O)c2cccs2)c(=O)n(C)c1=O
- H5N1 CPE: 1.3
Cc1nnc(NC(=O)C2C3C=CC(O3)C2C(=O)O)s1 (stereo unspecified)
- H5N1 CPE: 0.0
Cc1nc(NC(=O)COC(=O)C(NC(=O)c2ccco2)C(C)C)c(Cl)cc1Cl (stereo unspecified)
- H5N1 CPE: 0.4
CCC(=O)NC(Nc1cc(C)ccn1)(C(F)(F)F)C(F)(F)F
- H5N1 CPE: i
Clc1ccc(Cn2ccc(-c3ccc4c(c3)OCO4)n2)cc1Cl
- H5N1 CPE: i
